CDC25B CDK2 inh: human CDC25B-CDK2/CyclinA binding inhibition | 0.72% of 94,000 active | HTRF CDC25B-CDK2/CyclinA binding, anti-His/anti-Flag; stronger effect = higher value | z-score (no concentration beside the values) | AID 1259370 | P30305+P24941;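 further: score is relative to mean and SD of negative controls; strong numbers were not always called active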
TAR Tat displ: HIV-1 TAR-Tat binding disruption | z-score (concentration not given with the values) | 0.6% of 100,000 active | HIV-1 TAR RNA, Tat peptide displacement FRET; stronger effect = higher value | AID 1259389;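 further: score is relative to mean and SD of negative controls; some compounds called inactive have numbers as strong as hits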
Active calls of the source: *; . = no result given.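 How the source made its calls: active means z-score from 3 up in half or more of its runs; inactive means the rest.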

SMILES	CDC25B CDK2 inh	TAR Tat displ
COc1ccc(OC)c(NC(=O)c2sc3nc4c(cc3c2N)CCCCC4)c1	0.45	.
OCCN1CCN(CCCN2c3ccccc3Sc3ccc(C(F)(F)F)cc32)CC1	-3	2.1
Cc1cc(-c2ccc(S(=O)(=O)Nc3ccc(C)c(C)c3)o2)n[nH]1	.	0.74
CNC(=O)CN1C(=O)c2cccnc2Oc2ccccc21	.	0.56
O=C1CCC(=O)N1c1ccc(-c2nc3ccccc3c(=O)o2)cc1	1.3	-0.19
CCC1(C)Cc2ccccc2-c2[nH]c(=O)n(C3CCCC3)c(=O)c21 (stereo not drawn)	-1.6	1.3
O=c1oc2c(-c3ccccc3F)cc(O)cc2s1	-2.6	3.8
CN(Cc1ccccc1)C(=O)c1ccc2c(=O)[nH]c3c(C(=O)NC4CCCC4)sc(=S)n3c2c1	.	3
CC1CCN(c2nn3c(=O)c(C(=O)NCCCN4CCCC4=O)cnc3s2)CC1	.	-1.5
CC(C)CNC(=O)Nc1ccc2nc(NS(=O)(=O)c3ccccc3)sc2c1	.	0.08
Cc1ccccc1C(=O)Nc1cnc2sc(C(C)C)nn2c1=O	-2.4	2
C=CCn1c(N2CCCCCC2)nc2c1c(=O)[nH]c(=O)n2C	-0.03	.
Cc1ccc(Cn2c(=O)n(C(C)C)c(=O)c3oc4ccccc4c32)cc1	.	0.42
CCN(CC)CCCN(C)C(=O)C(=O)Nc1ccc2nc3n(c(=O)c2c1)CCCCC3	0.14	.
CN1CCN(CCCNC(=O)Cn2c(=O)c3cccn3c3ccc(F)cc32)CC1	.	-0.27
O=[N+]([O-])c1cc(C(F)(F)F)cc([N+](=O)[O-])c1NCCC1CC1(Cl)Cl (stereo not drawn)	-1.4	.
O=C(OCc1ccc(Oc2ccc(Cl)cc2Cl)c([N+](=O)[O-])c1)c1ccc([N+](=O)[O-])o1	-1.6	.
O=C(O)c1cc2ccccc2nc1-c1ccco1	0.87	35*
COc1ccc(Nc2cc(Sc3ccc(OC)cc3)ncn2)cc1	-1.4	0.86
COc1ccc(C(=O)Nc2cnc3sc4c(n3c2=O)CCCC4)cc1OC	-0.84	-0.39
O=C(c1cc(-c2ccccc2)on1)N1CCCC1c1ccco1 (stereo not drawn)	-0.53	2.4
O=C(CN1C=NS(=O)(=O)c2ccccc21)Nc1ccc2c(c1)OCO2	.	0.76
C1=CC2CC1CC2CN1CCN(Cc2c[nH]c3ccccc23)CC1 (stereo not drawn)	-0.58	0.35
Cc1ccc(/C(O)=C2/C(=O)C(=O)N(c3ccc(O)cc3)C2c2ccc(C)cc2)cc1 (stereo not drawn)	-3.3	1
O=C(C1CCN(c2ccncc2)CC1)N1CCCCC1	-0.27	1.3

At a glance, some entries already given:
SMILES	CDC25B CDK2 inh	TAR Tat displ
COc1ccc(OC)c(NC(=O)c2sc3nc4c(cc3c2N)CCCCC4)c1	0.45	.
OCCN1CCN(CCCN2c3ccccc3Sc3ccc(C(F)(F)F)cc32)CC1	-3	2.1
Cc1cc(-c2ccc(S(=O)(=O)Nc3ccc(C)c(C)c3)o2)n[nH]1	.	0.74

The listing continues:
SMILES	CDC25B CDK2 inh	TAR Tat displ
Cc1nn(CC(=O)Nc2ccc3c(c2)nc2n3CCN(C(C)C)C2)c(=O)c2ccccc12	-1.7	0.44
CC1CCN(S(=O)(=O)c2ccc3c(c2)CCCC(=O)N3)CC1	.	1.1
Cc1ccc(Cn2nc(C)n3c(cc4cc(C)ccc43)c2=O)cc1	0.56	1.3
O=C(CSc1nc2c(c(=O)[nH]1)CCC2)Nc1ccccc1Sc1ccccc1	0.37	1.7
Cc1ccc(C2C3=C(CC(C)(C)CC3=O)Nc3ccccc3N2C(=O)NCC2CCCO2)cc1 (stereo not drawn)	.	0.95
COc1ccccc1N1CCN([C@H]2CS(=O)(=O)C[C@@H]2S(=O)(=O)c2ccc(F)c(C)c2)CC1	0.29	0.4
CCCN1CCN(CCCNC(=O)C2=C(C)C(=O)OC23CCN(CC)CC3)CC1	.	1.2
CN1CCN(CCCNC(=O)CCCn2c(=O)c3cccn3c3cccnc32)CC1	.	1.1
CCC(C)NS(=O)(=O)c1ccc2c(c1)N(C(C)=O)CC(C)S2 (stereo not drawn)	.	2.2
COc1ccc(NS(=O)(=O)c2c(C)nc3sc(C)cn3c2=O)cc1	-1.3	1.6
CC1C(=O)N2CCCc3cc(S(=O)(=O)Nc4ccc(Cl)cc4)cc1c32 (stereo not drawn)	.	-0.17
O=C(CSc1nnc(N2CCOCC2)c2ccccc12)Nc1ccc(F)cc1	-1.6	0.97
CC(=O)Nc1ccc2nc(SCc3cc(=O)n4ccsc4n3)sc2c1	.	-0.16
CC1CCN(S(=O)(=O)c2ccc3c(c2)N(CC(=O)O)C(=O)CO3)CC1	.	1.9
Clc1ccc(CN2C3=NCCN3c3ccccc32)cc1	-0.14	2
O=C(NCCc1ccco1)c1nc(CS(=O)(=O)c2ccc(Cl)cc2)no1	.	0.48
O=C(CSCc1cnn(-c2ccccc2)c1-n1cccc1)N1CCN(C2CCCCC2)CC1	-1.6	0.55
CC(NC(=O)c1ccc(NC2=NC3CS(=O)(=O)CC3S2)cc1)c1ccccc1 (stereo not drawn)	.	0.05
O=C(c1ccc(Cl)cc1)N1CCN(c2ccc3nncn3n2)CC1	-0.96	.
COc1ccc(Br)cc1CNC(=O)c1cnc2scc(C)n2c1=O	.	0.11
COc1cccc(NC(=O)N2CC=C(n3c(=O)[nH]c4ccccc43)CC2)c1	-1.2	1.5
CCC1CCCCN1CCCNC(=O)C1CCCN(c2ncnc3c2nc2n3CCCCC2)C1 (stereo not drawn)	.	0.34
Cc1ccc(C(=O)N2N=C(CCC(C)C)CC2(O)C(F)(F)F)cc1 (stereo not drawn)	-0.34	.
O=C(NC1CCCC1)c1cccc(Nc2nc3ccccc3n3nnnc23)c1	.	1.3
COc1ccc(-n2nnc3c(sc4nc(C)ccc43)c2=O)cc1	-1.2	0.98
More compounds
SMILES	CDC25B CDK2 inh	TAR Tat displ
CC(C)(C)c1ccc(OCC(=O)Oc2ccc(-n3cnnn3)cc2)cc1	-1.1	-2.5
NNC(=O)CNc1cccc([N+](=O)[O-])c1	-1.2	.
CCCCNc1nc(Oc2ccc(=O)n(C)n2)nc(N(C)C)n1	-1.5	0.18
CC(C)(C)Sc1ccc2n[nH]c(=O)n2n1	0.75	2
CCOC(=O)N1CCC(Nc2c(N3CCCC3)c(=O)c2=O)CC1	-1.7	5
CCCCCCn1c(=O)c(-c2nc3ccccc3c(=O)[nH]2)c(O)c2ccccc21	.	0.83
COc1cc(Nc2ncc3c(n2)CCN(Cc2ccc4c(c2)OCCO4)C3)cc(OC)c1	.	-0.22
O=S(=O)(c1ccc(-c2ccc(S(=O)(=O)N3CCOCC3)cc2)cc1)N1CCOCC1	.	2.1
CCOC(=O)Cc1csc(NC(=O)c2cc(C)on2)n1	.	-0.35
O=S(=O)(c1ccc(-c2ccon2)s1)N(Cc1ccccn1)Cc1ccccn1	-0.83	.
CCc1noc2nc(C)nc(N3CCCC(C(=O)NC(C)C)C3)c12 (stereo not drawn)	.	2.5
Cc1ccc(CNc2ncnc3onc(C)c23)cc1	.	0.03
Cc1nc(N2CCOCC2)c2c(C(=O)Nc3ccc4c(c3)OCO4)c(C)oc2n1	.	0.49
CSC1=NCCN1C(=O)c1nn(-c2ccccc2)nc1C	-0.82	.
COc1ccc(-c2noc(CN(C(C)C)S(=O)(=O)c3ccc(Br)cc3)n2)cc1OC	-0.47	1.5
CNCCCCOc1ccccc1Cc1ccccc1	.	0.97
CC(=O)Nc1ccc(S(=O)(=O)N2CC(=O)NC(=O)C2)cc1	-1.5	.
Cc1cccc(Cn2cnc3cc(C)c(C)cc32)c1	-1.3	-0.35
CC1CCCN(S(=O)(=O)c2ccc3[nH]c(=O)c(=O)[nH]c3c2)C1 (stereo not drawn)	1.3	.
N#C/C(=C1/SC=C(c2ccccc2)N1c1ccccc1)c1nc2ccccc2[nH]1	-1.5	.
COC(=O)c1cnc(Nc2cccc(C(F)(F)F)c2)c([N+](=O)[O-])c1	-1.7	.
CCOC(=O)C1=C(C)N(c2ccc(F)cc2)C(=O)C1CC(=O)Nc1ccc(F)cc1 (stereo not drawn)	-1.9	.
Cn1c(=O)oc2cc(S(=O)(=O)N3CCn4c3nc3ccccc34)ccc21	-1.6	1.4
Cc1cc(-c2ccc(S(=O)(=O)NCc3cccs3)s2)n[nH]1	.	0.15
CCOc1ccc(C2C=C(C(=O)O)Nc3ncnn32)cc1OC (stereo not drawn)	2.1	-1.7
Further results follow:
SMILES	CDC25B CDK2 inh	TAR Tat displ
Cc1ccc(Cn2nc(C)c(NC(=O)c3noc(C(C)C)c3[N+](=O)[O-])c2C)cc1	-0.08	1.5
CCc1nnc(NC(=O)c2cc(=O)c3ccc(C)c(C)c3o2)s1	-0.17	1.8
O=S(=O)(O)c1cc(I)c(O)c2ncccc12	-0.79	.
CC(C)CNC(=O)CN1C(=O)c2ccccc2S1(=O)=O	0.22	.
NC(=O)C1CCN(C(=O)CCCc2nnc3n4nc(-c5ccccc5)nc4c4ccccc4n23)CC1	-0.56	0.99
COc1ccc(OC)c(N(C)C(=O)c2cc(S(=O)(=O)N3CCCC3)cn2C)c1	.	1.2
Cc1ccc(Cn2c(CN3CCOCC3)nc3c2c(=O)n(C)c(=O)n3C)cc1	1.4	3.9
C=CCNC(=O)CCCN1CCSc2ccccc21	.	-0.15
CCn1nc(C)c(Br)c1C(=O)Oc1ccc(Cl)cc1	-0.02	.
Cc1cccn2c(=O)c3cc(C#N)c(=O)n(Cc4ccco4)c3nc12	-0.25	0.71
COc1ccc(-c2cc(OC(=O)c3ccc(C)cc3)c3c(C)oc(C)c3c(=O)c2)cc1OC	-0.27	-4
COc1ccc(C(Nc2ccccn2)c2ccc3ccc(C)nc3c2O)cc1C (stereo not drawn)	1.3	.
CCc1cccc(-n2nnc(-c3nc(-c4ccncc4)no3)c2N)c1	.	-0.2
CCC(C)N(CCNC(=O)c1nn(C)c2c1CS(=O)(=O)c1ccccc1-2)Cc1ccco1 (stereo not drawn)	-2.2	1.5
CN(C)S(=O)(=O)c1ccc2c(c1)c(C#N)cn2C	0.1	-0.17
CCOCCCNc1nc2c(S(=O)(=O)c3c(C)cc(C)cc3C)nnn2c2ccccc12	-0.96	0.22
NC(=NC(=O)c1cnccc1C(F)(F)F)c1ccccn1	-0.88	.
CCc1ccc(-c2cc(C)no2)cc1S(=O)(=O)Nc1ccc(F)c(Cl)c1	.	0.78
O=C(NCCCN1CCOCC1)C1CCCN(c2nn3c(=O)c4c(nc3s2)CCCC4)C1 (stereo not drawn)	.	0.75
Cc1cccc(C2C3=C(CCCC3=O)N=C3c4ccccc4C(=O)C32)c1 (stereo not drawn)	-2	0.34
O=C(NCc1cccnc1)C1CCN(c2nn3c(=O)c4c(nc3s2)CCCC4)CC1	.	0.73
O=C(Nc1c(C(c2cccnc2)N2CCOCC2)oc2ccccc12)c1ccco1 (stereo not drawn)	-0.72	0
CC(=O)N1N=C(c2nc3nc(C)cc(C)n3n2)OC1c1ccc2ccccc2c1 (stereo not drawn)	.	1.9
CCn1ccc2cc(S(=O)(=O)N3CCCN(C(=O)Nc4ccc5c(c4)OCCO5)CC3)ccc21	.	0.58
CCC(=O)N1CCc2cc(Br)cc(S(=O)(=O)N3CC(C)CC(C)C3)c21 (stereo not drawn)	0.52	.

The last 4 records of the section before are carried over, then new ones follow:
SMILES	CDC25B CDK2 inh	TAR Tat displ
O=C(Nc1c(C(c2cccnc2)N2CCOCC2)oc2ccccc12)c1ccco1 (stereo not drawn)	-0.72	0
CC(=O)N1N=C(c2nc3nc(C)cc(C)n3n2)OC1c1ccc2ccccc2c1 (stereo not drawn)	.	1.9
CCn1ccc2cc(S(=O)(=O)N3CCCN(C(=O)Nc4ccc5c(c4)OCCO5)CC3)ccc21	.	0.58
CCC(=O)N1CCc2cc(Br)cc(S(=O)(=O)N3CC(C)CC(C)C3)c21 (stereo not drawn)	0.52	.
CC(CC(=O)NC1CCCc2ccccc21)S(=O)(=O)c1ccc2c(c1)NC(=O)CS2 (stereo not drawn)	.	-2.1
Cc1oc(-c2ccccc2)nc1Cn1c(=O)cc(C)c2c(C)nn(C)c21	.	0.96
Cc1cccc(-n2c(=O)c(C#N)cc3c(=O)n4cccc(C)c4nc32)c1	-1.7	-1.1
CCNc1nc(NCCN(C)C)nc2c1cnn2C	.	1.5
Cc1cc(C)n(Cc2c(C(=O)NCc3ccc4c(c3)OCO4)noc2C)n1	.	1.1
CN(CCCNC(=O)CN(C)c1nnc(N2CCCC2=O)s1)c1ccccc1	.	0.26
Cc1nc(-c2cccnc2)sc1CCNS(=O)(=O)c1ccc(Cl)cc1	.	0.51
O=C(NC1CC1)C1CCN(S(=O)(=O)c2cccc3nonc23)CC1	.	1.1
COc1ccc(C2CC(=O)NC3=C2C(=O)CC(c2ccc(F)cc2)C3)c(OC)c1 (stereo not drawn)	0.25	2.1
Cc1ccc(-n2ncc3c2ncn2nc(-c4ccccc4Cl)nc32)cc1	0.55	1.6
COc1ccc(-c2csc(-c3cc4c([nH]c3=O)CC(c3ccco3)CC4=O)n2)cc1F (stereo not drawn)	13*	-3.8
CN(C)CCNCc1ccc2c(c1)n(C)c(=O)n2C	-1.6	-0.49
Cc1c(C)n(Cc2ccc(Br)cc2)c(=O)n(Cc2ccc(Br)cc2)c1=O	-0.33	.
Cc1c(C(=O)C(=O)N2C(C)CCCC2C)c2ccccc2n1C (stereo not drawn)	-1.9	.

In another format: five of the compounds above.
SMILES | CDC25B CDK2 inh | TAR Tat displ
CN(CCCNC(=O)CN(C)c1nnc(N2CCCC2=O)s1)c1ccccc1 | . | 0.26
Cc1nc(-c2cccnc2)sc1CCNS(=O)(=O)c1ccc(Cl)cc1 | . | 0.51
O=C(NC1CC1)C1CCN(S(=O)(=O)c2cccc3nonc23)CC1 | . | 1.1
COc1ccc(C2CC(=O)NC3=C2C(=O)CC(c2ccc(F)cc2)C3)c(OC)c1 (stereo not drawn) | 0.25 | 2.1
Cc1ccc(-n2ncc3c2ncn2nc(-c4ccccc4Cl)nc32)cc1 | 0.55 | 1.6

Source: PubChem
